Source: PubChem BioAssay (several laboratories)
CSC inhib: blocks cancer stem cells | cancer stem cell-like cells viability, luminescence | 300,000 tested, 1.1% active | inhibition, % at 7.5 µM;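 active means mean at 75% or more and at least half the replicates too; tested in HMLE shEcad cells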;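 further: 0% = median of negative and 100% = median of positive control wells; the first replicate is given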
HIV Env fusion: HIV envelope-mediated fusion inhibition | HeLa-JRFL Env/CEM21 cell fusion, luciferase | 360,000 tested, 1.1% active | inhibition, % at 12.3 µM;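 active means mean replicate inhibition score of at least 50 and every replicate individually at or above 50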;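 further: 0% = plate neutral controls and 100% = maraviroc near 300 nM; one replicate is shown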
eIF4H inh: inhibitors of RNA binding by human eIF4H; 290,000 tested, 0.94% active; eIF4H fluorescence polarization binding assay; AID 2012; Q15056; inhibition, % at 35 µM;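 active means 50% or more with normal probe brightness, or confirmed in later tests; about a fifth of its hits are not listed in these tables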;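 further: calls also rest on retests at 20 µM and on dose response follow-up; 0% = protein and probe with vehicle and 100% = probe without protein; strong numbers were not always called active; many hits fall short of the cut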
Rce1 inhib: inhibitors of yeast Ras-converting enzyme; yeast membranes, quenched prenylated peptide cleavage fluorescence; calls only; 290,000 tested, 0.27% active; AID 2563;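 active means fall in fluorescence gain of 50% or more versus controls, with final raw signal at or below 3038400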;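 further: plate controls were neutral control wells for no effect and wells lacking membranes for full effect; tested at 10 µM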
MT1-MMP act inh: blocks activation of human MT1-MMP | P50281 | HT1080 RFP-PRO-GFP cells, GFP/RFP ratio fluorescence, overnight; percent of plate control window, DMSO zero | GFP/RFP ratio change, % at 20 µM | 360,000 tested, 0.061% active | AID 651647;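 active means GFP/RFP ratio change of at least 30% with cell ATP level not reduced by more than half and red fluorescence within 50% of control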; further: strong numbers were not always called active
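Test system: HT1080 RFP-PRO-GFP cells; Benchmarks: DMSO and RFP-L50D-GFP cell wells; Timing: cells overnight before dosing, compound overnight, 37 °C, 5% CO2; Compound: one 20 µM compound dose with 1% DMSO; Read-out: GFP/RFP fluorescence ratio.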
PABP polyA inh: blocks human PABP binding to poly(A) RNA; P11940; fluorescence polarization; inhibition, % at 35 µM; 290,000 tested, 1% active; AID 2014;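 active means 50% or more with normal probe brightness, or confirmed in later tests; about a fifth of its hits are not listed in these tables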;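 further: calls also rest on retests at 20 µM and on dose response follow-up; controls were probe without protein and protein plus probe with vehicle; some compounds called inactive have numbers as strong as hits; many hits fall short of the cut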
Target sequence (P11940 whole entry, looked up): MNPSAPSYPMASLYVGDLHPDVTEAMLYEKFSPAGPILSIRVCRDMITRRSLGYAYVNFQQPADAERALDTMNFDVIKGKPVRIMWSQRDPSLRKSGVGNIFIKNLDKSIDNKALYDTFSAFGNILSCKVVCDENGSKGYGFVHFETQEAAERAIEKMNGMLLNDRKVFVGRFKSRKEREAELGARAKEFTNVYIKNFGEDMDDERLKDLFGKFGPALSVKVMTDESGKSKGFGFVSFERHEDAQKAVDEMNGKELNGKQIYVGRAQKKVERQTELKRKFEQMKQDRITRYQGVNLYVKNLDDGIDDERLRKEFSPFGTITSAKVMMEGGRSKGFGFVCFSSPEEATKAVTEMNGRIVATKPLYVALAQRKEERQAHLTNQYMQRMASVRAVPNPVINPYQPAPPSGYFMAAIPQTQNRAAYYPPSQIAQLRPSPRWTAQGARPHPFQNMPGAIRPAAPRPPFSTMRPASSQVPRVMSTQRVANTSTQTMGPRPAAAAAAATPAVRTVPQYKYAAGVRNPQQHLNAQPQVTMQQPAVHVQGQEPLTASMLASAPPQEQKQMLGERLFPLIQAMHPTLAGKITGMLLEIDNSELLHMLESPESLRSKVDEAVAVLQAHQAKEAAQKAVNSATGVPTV
UUG fidelity: yeast start codon fidelity modulation; S. cerevisiae UUG-firefly luciferase reporter, luminescence/redox ratio; activity score, % at 18.7 µM; 350,000 tested, 0.13% active; AID 602363;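 active means replicate mean at a twofold rise or more, about +100% in these data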;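 further: firefly luciferase made from a UUG start codon reports start codon fidelity; reporter light over untreated wells divided by growth signal over untreated wells; some hits fall short of that in this replicate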
MT1-MMP act inh RFP: recorded beside MT1-MMP act inh, whose call it bears; RFP signal change, %; measured here: RFP expression control read;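 0 = vehicle wells; hits needed this value within 50% of zero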
The depositor's hits bear a star. Some of the compounds tested (hit frequency here may not be typical).

Screening CC(C)Oc1cc(NC(=O)CS(=O)CC(=O)Nc2cccc(C(F)(F)F)c2)c(Cl)cc1Cl (stereo not given) returned CSC inhib 54, eIF4H inh -12, Rce1 inhib inactive, MT1-MMP act inh 4, PABP polyA inh -7, UUG fidelity 3 and MT1-MMP act inh RFP -4.
Screening COc1cc2cc(C)c(SCC(=O)N3CCOCC3)nc2cc1OC returned CSC inhib -7, eIF4H inh 1, Rce1 inhib inactive, MT1-MMP act inh -12, PABP polyA inh -5, UUG fidelity -40 and MT1-MMP act inh RFP 6.
`COc1ccccc1CCNC(=O)C(=O)NCC1OCCN1S(=O)(=O)c1ccc(Br)cc1` (stereo not given) gave CSC inhib 3, HIV Env fusion -25, eIF4H inh -7, Rce1 inhib inactive, MT1-MMP act inh 4, PABP polyA inh 6 and MT1-MMP act inh RFP 10.
CC(C)N1CCC(N2CCN(CC#Cc3ccccc3)CC2CCO)CC1 (stereo not given) was read as CSC inhib -12, HIV Env fusion -5, eIF4H inh -9, Rce1 inhib inactive, MT1-MMP act inh 2, PABP polyA inh 4 and MT1-MMP act inh RFP 5.
Screening CCOC(=O)c1sc2ccc(S(=O)(=O)N3CCOCC3)cc2c1N returned CSC inhib 2, HIV Env fusion -18, eIF4H inh -13, MT1-MMP act inh -6, PABP polyA inh -8, UUG fidelity -16 and MT1-MMP act inh RFP -7.
For COc1ccc(-n2cnc3ccccc3c2=O)c([N+](=O)[O-])c1 the results were CSC inhib 10, HIV Env fusion -19, eIF4H inh -8, Rce1 inhib inactive, MT1-MMP act inh 4, PABP polyA inh -2, UUG fidelity -2 and MT1-MMP act inh RFP 4.
Screening Cc1ccccc1-c1noc(CCC(=O)NCC2CCCO2)n1 (stereo not given) returned CSC inhib -1, HIV Env fusion -25, eIF4H inh 0, Rce1 inhib inactive, MT1-MMP act inh -1, PABP polyA inh 42 and MT1-MMP act inh RFP 1.
For O=C(Cc1cccs1)Nc1cccc(-c2nc3ccccc3[nH]2)c1 the results were HIV Env fusion -23, eIF4H inh -7, Rce1 inhib inactive, MT1-MMP act inh 4, PABP polyA inh 12, UUG fidelity -24 and MT1-MMP act inh RFP -4.
Screening COc1ccccc1CN(C)C(=O)c1ccc(COc2ccccc2)cc1 returned CSC inhib 14, HIV Env fusion 11, eIF4H inh -2, Rce1 inhib inactive, MT1-MMP act inh -2, PABP polyA inh -6, UUG fidelity -9 and MT1-MMP act inh RFP -3.
`CC(C)c1ccc2[nH]c(O)c(N=NC(=O)c3ccc(CSc4nncn4C)cc3)c2c1` gave CSC inhib 3, eIF4H inh 0, Rce1 inhib inactive, MT1-MMP act inh 13, PABP polyA inh -2, UUG fidelity -14 and MT1-MMP act inh RFP -8.
For CC1(c2ccccc2)NC(=O)N(CC(=O)Nc2nc(-c3ccccn3)cs2)C1=O (stereo not given) the results were HIV Env fusion -4, Rce1 inhib inactive, MT1-MMP act inh 6, UUG fidelity -34 and MT1-MMP act inh RFP 3.
Screening Cc1cccc(N2CC(C(=O)O)CC2=O)c1C (stereo not given) returned CSC inhib -12, HIV Env fusion 6, eIF4H inh 4, Rce1 inhib inactive, MT1-MMP act inh 7, PABP polyA inh 4 and MT1-MMP act inh RFP 8.
Cc1ccc2c(c1)N(S(=O)(=O)c1ccc(CN3C(=O)c4cccnc4C3=O)s1)CCO2 was read as CSC inhib 6, HIV Env fusion 13, eIF4H inh -1, Rce1 inhib inactive, MT1-MMP act inh 1, PABP polyA inh -3, UUG fidelity -5 and MT1-MMP act inh RFP 7.
For O=C(CSc1ncnc2ccccc12)NCCc1ccccc1 the results were CSC inhib 8, HIV Env fusion 0, eIF4H inh -2, Rce1 inhib inactive, MT1-MMP act inh 0, PABP polyA inh 5, UUG fidelity -20 and MT1-MMP act inh RFP -3.
O=C(NCc1ccccc1)c1cccc(NS(=O)(=O)c2cccc3cccnc23)c1 was read as CSC inhib -24, HIV Env fusion 0, eIF4H inh -5, Rce1 inhib inactive, MT1-MMP act inh -4, PABP polyA inh -7 and MT1-MMP act inh RFP 0.

Next part, starting with the last 6 of the part before.
`CC(C)c1ccc2[nH]c(O)c(N=NC(=O)c3ccc(CSc4nncn4C)cc3)c2c1` gave CSC inhib 3, eIF4H inh 0, Rce1 inhib inactive, MT1-MMP act inh 13, PABP polyA inh -2, UUG fidelity -14 and MT1-MMP act inh RFP -8.
For CC1(c2ccccc2)NC(=O)N(CC(=O)Nc2nc(-c3ccccn3)cs2)C1=O (stereo not given) the results were HIV Env fusion -4, Rce1 inhib inactive, MT1-MMP act inh 6, UUG fidelity -34 and MT1-MMP act inh RFP 3.
Screening Cc1cccc(N2CC(C(=O)O)CC2=O)c1C (stereo not given) returned CSC inhib -12, HIV Env fusion 6, eIF4H inh 4, Rce1 inhib inactive, MT1-MMP act inh 7, PABP polyA inh 4 and MT1-MMP act inh RFP 8.
Cc1ccc2c(c1)N(S(=O)(=O)c1ccc(CN3C(=O)c4cccnc4C3=O)s1)CCO2 was read as CSC inhib 6, HIV Env fusion 13, eIF4H inh -1, Rce1 inhib inactive, MT1-MMP act inh 1, PABP polyA inh -3, UUG fidelity -5 and MT1-MMP act inh RFP 7.
For O=C(CSc1ncnc2ccccc12)NCCc1ccccc1 the results were CSC inhib 8, HIV Env fusion 0, eIF4H inh -2, Rce1 inhib inactive, MT1-MMP act inh 0, PABP polyA inh 5, UUG fidelity -20 and MT1-MMP act inh RFP -3.
O=C(NCc1ccccc1)c1cccc(NS(=O)(=O)c2cccc3cccnc23)c1 was read as CSC inhib -24, HIV Env fusion 0, eIF4H inh -5, Rce1 inhib inactive, MT1-MMP act inh -4, PABP polyA inh -7 and MT1-MMP act inh RFP 0.
Screening CCCN1C(=O)C2(/C(=C(\O)c3ccc4c(c3)OCCO4)C(=O)C(=O)N2CCCOC)c2ccccc21 (stereo not given) returned CSC inhib 8, eIF4H inh -6, MT1-MMP act inh -3, PABP polyA inh -1 and MT1-MMP act inh RFP 0.
For Cc1ccc(N=Nc2c(C)[nH]n(-c3ccccc3)c2=O)cc1Br the results were CSC inhib -10, HIV Env fusion 14, eIF4H inh -16, Rce1 inhib inactive, MT1-MMP act inh 3, PABP polyA inh -9, UUG fidelity 1 and MT1-MMP act inh RFP 1.
`O=C(CCl)N(Cc1ccccc1)c1ccccc1` gave CSC inhib 6, HIV Env fusion 26, eIF4H inh -8, Rce1 inhib inactive, MT1-MMP act inh -8, PABP polyA inh 5 and MT1-MMP act inh RFP -14.
Screening CCOc1ccc(CN(C)c2ccc(S(=O)(=O)N3CCN(C)CC3)cc2[N+](=O)[O-])cc1OC returned CSC inhib 13, MT1-MMP act inh 4, UUG fidelity 6 and MT1-MMP act inh RFP -31.
`CCCCNC(=O)c1cc(-c2ccc(OC)cc2)on1` gave CSC inhib -4, HIV Env fusion -136, eIF4H inh 1, Rce1 inhib inactive, MT1-MMP act inh 4, PABP polyA inh -3, UUG fidelity -15 and MT1-MMP act inh RFP -2.
`Cc1cccc(NC(=O)c2ncn3c2C(=O)N[C@H](C)C3)c1` gave HIV Env fusion -8, MT1-MMP act inh -2, UUG fidelity -13 and MT1-MMP act inh RFP -12.
CCn1c(C(C)NC(=O)c2cccc(C)c2)n[nH]c1=S (stereo not given) was read as CSC inhib 3, HIV Env fusion 0, eIF4H inh -7, Rce1 inhib inactive, MT1-MMP act inh -1, PABP polyA inh 3 and MT1-MMP act inh RFP -1.
`O=C(c1ccco1)N1CCN(C(c2ccccc2)c2nnnn2Cc2cccs2)CC1` (stereo not given) gave HIV Env fusion -45, eIF4H inh -8, Rce1 inhib inactive, MT1-MMP act inh 3, PABP polyA inh 12, UUG fidelity -4 and MT1-MMP act inh RFP -5.
Cc1oc2c(c(C)cc3oc(=O)c(CC(=O)N[C@@H](CC(C)C)C(=O)O)c(C)c32)c1C was read as CSC inhib -3, HIV Env fusion 17, eIF4H inh -14, Rce1 inhib inactive, MT1-MMP act inh -1, PABP polyA inh 9, UUG fidelity 0 and MT1-MMP act inh RFP 1.
COC(=O)CC1C(=O)NCCN1C(=S)Nc1ccccc1Cl (stereo not given) was read as CSC inhib -11, HIV Env fusion 4, eIF4H inh 1, Rce1 inhib inactive, MT1-MMP act inh 0, PABP polyA inh 3 and MT1-MMP act inh RFP 2.
Screening CC(C)CC(NC(=O)C(CO)NC(=O)C1CCC(=O)N1)C(N)=O (stereo not given) returned CSC inhib -1, HIV Env fusion 8, eIF4H inh 7, Rce1 inhib inactive, MT1-MMP act inh 2, PABP polyA inh 3 and MT1-MMP act inh RFP 6.
For O=C(NCCNC(=O)c1cnccn1)c1ccc(Cl)c(Cl)c1 the results were CSC inhib -18, HIV Env fusion 13, eIF4H inh -8, Rce1 inhib inactive, MT1-MMP act inh 3, PABP polyA inh -4 and MT1-MMP act inh RFP 3.
`CCOc1ccccc1NC(=O)NCc1ccc2c(c1)OCO2` gave CSC inhib -3, HIV Env fusion 3, eIF4H inh -4, Rce1 inhib inactive, MT1-MMP act inh -1, PABP polyA inh 6, UUG fidelity -10 and MT1-MMP act inh RFP -1.
Cc1ccc(S(=O)(=O)N2CCOCC2)cc1C(=O)NCc1cn2ccsc2n1 was read as CSC inhib -6, eIF4H inh -8, Rce1 inhib inactive, MT1-MMP act inh 1, PABP polyA inh -9, UUG fidelity 1 and MT1-MMP act inh RFP 1.
CN(C)c1nc(C(=O)O)nc(N2CCOCC2)n1 was read as HIV Env fusion 12, eIF4H inh -3, Rce1 inhib inactive, MT1-MMP act inh 3, PABP polyA inh 1 and MT1-MMP act inh RFP 2.
Screening Cc1ccc2nc(C(F)OC(F)(F)F)[nH]c2c1 (stereo not given) returned CSC inhib -10, HIV Env fusion 10, eIF4H inh 3, Rce1 inhib inactive, MT1-MMP act inh 1, PABP polyA inh 4, UUG fidelity -3 and MT1-MMP act inh RFP 1.
Screening CCOc1cc(C(C(=O)NCC2CCCO2)N(C(=O)Cn2nnc3ccccc32)c2ccc(NC(C)=O)cc2)ccc1O (stereo not given) returned CSC inhib -12, HIV Env fusion -5, eIF4H inh 2, Rce1 inhib inactive, MT1-MMP act inh 3, PABP polyA inh -6, UUG fidelity -1 and MT1-MMP act inh RFP 1.
O=C(Nc1cccnc1)/C(N=Nc1ccc(Cl)c(C(F)(F)F)c1)=C(\O)c1ccccc1 was read as CSC inhib 3, eIF4H inh -8, Rce1 inhib inactive, MT1-MMP act inh 5, PABP polyA inh -1 and MT1-MMP act inh RFP 5.
CC(C)C[C@H](NC(=O)OC(C)(C)C)c1n[nH]c(=S)n1N was read as CSC inhib -2, HIV Env fusion -9, eIF4H inh -5, Rce1 inhib inactive, MT1-MMP act inh 3, PABP polyA inh -9 and MT1-MMP act inh RFP 3.
C#CCOc1ccccc1/C=N/NC(=O)c1ccccc1OCc1ccccc1 was read as CSC inhib -10, HIV Env fusion -1, eIF4H inh -3, Rce1 inhib inactive, MT1-MMP act inh 3, PABP polyA inh -7, UUG fidelity 2 and MT1-MMP act inh RFP -16.
`CN(C(=O)c1ccc(NC(=O)Cc2ccc(NC(=O)C3CCN(C(=O)C4CCCCC4)CC3)cc2)cc1)C1CC1` gave CSC inhib -9, HIV Env fusion 3, MT1-MMP act inh 3, UUG fidelity -11 and MT1-MMP act inh RFP 4.
`CCOc1ccccc1NC(=O)CN(c1nccs1)S(=O)(=O)c1ccc(N)cc1` gave CSC inhib 1, HIV Env fusion -45, eIF4H inh 10, Rce1 inhib inactive, MT1-MMP act inh -1, PABP polyA inh 5, UUG fidelity -20 and MT1-MMP act inh RFP -1.
For COc1ccc(CC2=C(O)c3ccccc3C(=O)C2=O)cc1 the results were CSC inhib -5, HIV Env fusion -8, eIF4H inh 6, Rce1 inhib inactive, MT1-MMP act inh 6, PABP polyA inh 10, UUG fidelity -10 and MT1-MMP act inh RFP 4.
